# Screening results deposited in PubChem BioAssay by several laboratories.
# Sa ugtP lethal = growth inhibition of ugtP-null S. aureus, primary screen, RN4220 ugtP deletion, OD600; 16 h; some inactives read as strong as hits; growth inhibition, % (test concentration not listed); 0.54% of 330,000 active; AID 1259309, 2017;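 active = z-score under -3 and OD600 up to 0.15 on both plates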;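 also: plate controls were untreated wells for no effect and antibiotic for full effect; wells of about 80 µL received 100 nL stock; the first replicate is given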
# Sa RN4220 lethal = growth inhibition of S. aureus RN4220, primary screen, OD600; 16 h; inhibition, % (test concentration not listed); 0.33% of 330,000 active; AID 1259311, 2017;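 active = z-score of -3 or lower and OD600 up to 0.18 on both plates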;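 also: plate controls were untreated cells for no effect and reference antibiotic for full effect; stock transfer was 100 nL into about 80 µL; one replicate is shown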
# PrP 5UTR inh = inhibition of PrP 5' UTR reporter expression. 0.35% of 340,000 active. cell-based PrP 5' UTR mRNA reporter, plate reader. inhibition, % (test concentration not listed). AID 488862, 2010;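 active = every replicate at 50% or more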;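 also: 0 = median of the neutral control wells; tested in H4 reporter cells; numbers are from one replicate; inactives centre near -14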
# Mtb hypoxia inh = PubChem AID 1159583. 0.1% of 300,000 active. fluorescence inhibition, % (no concentration beside the values). M. tuberculosis hypoxia-regulated fluorescent reporter, fluorescence;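 active = 35 to 45% if threefold the growth effect, above 45% if 1.5-fold the growth effect; inactive = the rest, general growth blockers included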;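 also: wells of about 50 µL received 100 nL stock; 0% = vehicle wells and 100% = reference inhibitor wells; whole bacteria with a GFP reporter of the hypoxia response; strong numbers were not always called active; many hits fall short of the cut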
# Bead autofluor = counter-screen for toxin protease inhibitors: compound fluorescence; 3.1% of 360,000 active; fluorescence intensity (no concentration beside the values); compound autofluorescence counterscreen, microsphere flow cytometry; hits give high values;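 active = at least 3 SD above the mean of all compounds, about 16000 in these data; inconclusive = too few beads counted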;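 also: 100 nL of 1 mM stock went into each well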
# BJeLR viability = MLPCN primary cell-based screen for lethality selective to Ras in HRASV12 cells; BJeLR (HRASV12) viability, CellTiter-Glo ATP luminescence, 48 h; reference of the scale not given here; inhibition, % (test concentration not listed); 0.17% of 300,000 active; AID 1554, 2009;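 active = replicate mean above 50%; inconclusive = above 50% but judged a plate artefact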;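 also: 50 nL library stock added to about 25 µL; numbers are from one replicate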
# Mtb hypoxia inh growth = further read-out of Mtb hypoxia inh, marked with its call; growth inhibition, %; measured here: M. tuberculosis growth (absorbance);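 0% = vehicle and 100% = reference antibiotic; read after six days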
# * marks the source's active call; other numbers are inactive results; ? = inconclusive; nt = not tested or not shown.
# Letters: A = Sa ugtP lethal; B = Sa RN4220 lethal; C = PrP 5UTR inh; D = Mtb hypoxia inh; E = Mtb hypoxia inh growth; F = Bead autofluor; G = BJeLR viability
[1] CCc1nnc(NC(=O)c2sc3nc4c(cc3c2N)CCCCC4)s1
  A: 29	B: 48	C: -50	D: 6	E: 10	F: 2362	G: -16

[2] Fc1ccc(C=NNc2nc(-c3cccnc3)nc3ccccc23)cc1
  A: -13	B: -0.3	C: nt	D: 2	E: 5	F: nt	G: nt

[3] CC[C@@H](C)[C@@H](C(=O)N1CCN(C(=O)OC(C)(C)C)CC1)n1cc(CCC(=O)O)nn1
  A: nt	B: nt	C: -17	D: nt	E: nt	F: 4160	G: 11

[4] CN(CC(=O)Nc1ccccc1Cl)C(=O)COC(=O)c1ccc(C(F)(F)F)cc1
  A: 12	B: 5.3	C: -6	D: 4	E: -2	F: 2959	G: nt

[5] Cc1cc(NC(=O)c2ccc(-c3ccccc3F)o2)no1
  A: 5	B: -5.3	C: -36	D: 9	E: -4	F: 3505	G: -7

[6] Cn1c(-c2ccc(F)cc2)cnc1SCC(=O)Nc1ccccc1N1CCOCC1
  A: 7	B: 4.7	C: -99	D: 8	E: 5	F: 4095	G: 0

[7] COc1cccc(NC(=O)C2CCC(CNS(=O)(=O)c3cccc4cccnc34)CC2)c1 (configuration not stated)
  A: 4	B: 0.8	C: -10	D: -7	E: -1	F: 4147	G: 0

[8] Cc1ccc(C)c(OCC(=O)Nc2ccc3c(c2)OCO3)c1C
  A: -1	B: 1.1	C: -19	D: 7	E: 5	F: 6670	G: -2

[9] COCCCn1c(=O)c2sccc2n(Cc2ccccc2C)c1=O
  A: 9	B: 0.1	C: -26	D: 19	E: 9	F: 4011	G: -6

[10] CC1(C)CC(=O)CC(=NNc2nc3ccccc3s2)C1
  A: -7	B: -5.3	C: nt	D: 5	E: -4	F: nt	G: nt

[11] CC1CCCCC1NC(=O)CN1C(=O)COc2ccccc21 (configuration not stated)
  A: 1	B: 2.1	C: -4	D: -5	E: -9	F: 3690	G: -3

[12] N#CCCN(C(=O)CSc1nc(-c2ccccc2)cn1N)c1ccc(F)cc1
  A: 2	B: 4.2	C: -10	D: 3	E: 3	F: 2782	G: 10

[13] COC(=O)Nc1nc2c(C)cccc2s1
  A: -12	B: 2.7	C: -19	D: -19	E: -3	F: 11721	G: 3

[14] CCNc1ccc(C(=O)NN=C2CCCC2)cc1[N+](=O)[O-]
  A: 7	B: 5.5	C: -32	D: 6	E: 9	F: 4074	G: -7

[15] Cc1[nH]n(-c2ccccc2)c(=O)c1/C=N\NC(=O)C1COc2ccccc2O1 (configuration not stated)
  A: nt	B: nt	C: -16	D: nt	E: nt	F: 2022	G: -1

[16] S=c1[nH]nc(-c2ccc3ccccc3n2)n1-c1ccc2c(c1)OCCO2
  A: 16	B: -0.2	C: -10	D: 15	E: 16	F: nt	G: 2

[17] CCOC(=O)C1CCN(C(=O)c2ccc3c(SCC(=O)O)c4c(nc3c2)CCCC4)CC1
  A: 4	B: 5.2	C: -39	D: 3	E: -1	F: 4282	G: 3

[18] CCC(C(=O)OC)(C(=O)OC)c1ccc([N+](=O)[O-])cc1
  A: 7	B: 13	C: -16	D: -3	E: 5	F: 3137	G: -9

[19] COCCn1nnnc1C(C(C)C)N(Cc1ccccc1)Cc1cc2cc(OC)ccc2[nH]c1=O (configuration not stated)
  A: -9	B: -5.3	C: -6	D: nt	E: nt	F: 5669	G: nt

[20] Cc1ccc(-c2n[nH]c(=S)n2-c2ccccc2)cc1
  A: 7	B: 2.9	C: -6	D: 4	E: 8	F: 9516	G: -14

[21] O=C(NC1CCCc2c1cnn2-c1cc(F)cc(F)c1)c1ccccn1 (configuration not stated)
  A: 5	B: 1.8	C: 3	D: 5	E: 7	F: 6499	G: 4

[22] COc1ccc(OC)c(NC(=O)CSc2nc3c(c(=O)n(C)c(=O)n3C)n2C)c1
  A: 3	B: 1.4	C: -5	D: 16	E: 10	F: 8164	G: -11

[23] CCOC(=O)N1CCN(S(=O)(=O)c2ccc(C)cc2)CC1
  A: 11	B: 2.0	C: -30	D: 7	E: 16	F: 4052	G: 17

[24] COc1ccc2c(C)cc(SCC(=O)Nc3ccc(Cl)cn3)nc2c1
  A: -5	B: -1.0	C: -21	D: 4	E: -4	F: 11145	G: -3

[25] O=c1c(C=NCCCn2ccnc2)c(-c2ccccc2)[nH]n1-c1nc2ccccc2s1
  A: -3	B: 5.6	C: -16	D: 4	E: 7	F: 7484	G: 4

[26] CCOC(=O)C1=C(COC(=O)/C=C/c2ccccc2)NC(=O)NC1C (configuration not stated)
  A: nt	B: nt	C: -5	D: nt	E: nt	F: ?	G: -1

[27] Cc1ccc2oc(=O)cc(/C=C/c3ccccc3)c2c1
  A: 8	B: 15	C: 13	D: 14	E: 4	F: 9893	G: 5

[28] NNC(=O)C(Cc1ccccc1)NC(=O)OCc1ccccc1 (configuration not stated)
  A: 3	B: 2.4	C: -25	D: 8	E: -4	F: 4210	G: -2

[29] COC(=O)c1cc(OC)c(OC)cc1NC(=O)c1ccc(OC)cc1
  A: -10	B: -6.4	C: -23	D: 4	E: 11	F: 3325	G: 11

[30] Cn1cccc1/C=N/NC(=O)c1ccc(OC(F)(F)C(F)F)cc1
  A: nt	B: nt	C: -30	D: nt	E: nt	F: 2415	G: -3

[31] Cc1ccc(Oc2ccc(C(F)(F)F)cc2[N+](=O)[O-])c([N+](=O)[O-])n1
  A: 10	B: -4.6	C: -59	D: 10	E: 4	F: nt	G: 4

[32] COc1ccc(/C=C/c2ccc3ccccc3[n+]2C)cc1OC
  A: -4	B: -2.0	C: -38	D: -5	E: -7	F: 4109	G: 1

[33] CCCN(CCC)C(=O)c1cc2c(=O)n3cccc(C)c3nc2s1
  A: 16	B: 0.6	C: -21	D: 3	E: 6	F: 3704	G: -11

[34] NP(=O)(OCCCc1ccccc1)Oc1ccccc1Cl (configuration not stated)
  A: nt	B: nt	C: -25	D: nt	E: nt	F: 2936	G: -11

[35] COCCOC(=O)c1c(NC(=O)CN2c3ccccc3CC2C)sc(C(N)=O)c1C (configuration not stated)
  A: -1	B: 2.4	C: -24	D: 4	E: 3	F: 4963	G: 6

[36] CN1C(=O)C(C)(C)c2cc(S(=O)(=O)N3CCCCCC3)ccc21
  A: 9	B: 8.6	C: 5	D: -2	E: -3	F: 7092	G: -11

[37] O=C(Cn1cnc2cc([N+](=O)[O-])ccc2c1=O)N1CCN(S(=O)(=O)c2ccccc2)CC1
  A: 4	B: -1.9	C: -11	D: 2	E: 1	F: 3966	G: nt

[38] COCCN(C(=O)Nc1ccc(OC)cc1)c1nc2ccccc2s1
  A: 6	B: 1.9	C: -10	D: 13	E: -3	F: 3132	G: 16

# Along the list, as entered above:
# Sa ugtP lethal for nos. 32 to 36 → -4, 16, nt, -1, 9

# Another view of part of the listing above:
# Each structure is followed by: Sa ugtP lethal, Sa RN4220 lethal, PrP 5UTR inh, Mtb hypoxia inh, Mtb hypoxia inh growth, Bead autofluor, BJeLR viability
34	NP(=O)(OCCCc1ccccc1)Oc1ccccc1Cl (configuration not stated)
  nt, nt, -25, nt, nt, 2936, -11
32	COc1ccc(/C=C/c2ccc3ccccc3[n+]2C)cc1OC
  -4, -2.0, -38, -5, -7, 4109, 1
26	CCOC(=O)C1=C(COC(=O)/C=C/c2ccccc2)NC(=O)NC1C (configuration not stated)
  nt, nt, -5, nt, nt, ?, -1
36	CN1C(=O)C(C)(C)c2cc(S(=O)(=O)N3CCCCCC3)ccc21
  9, 8.6, 5, -2, -3, 7092, -11
28	NNC(=O)C(Cc1ccccc1)NC(=O)OCc1ccccc1 (configuration not stated)
  3, 2.4, -25, 8, -4, 4210, -2
30	Cn1cccc1/C=N/NC(=O)c1ccc(OC(F)(F)C(F)F)cc1
  nt, nt, -30, nt, nt, 2415, -3

# Shown with tabs: 2 of the compounds above.
item	Compound	Sa ugtP lethal	Sa RN4220 lethal	PrP 5UTR inh	Mtb hypoxia inh	Mtb hypoxia inh growth	Bead autofluor	BJeLR viability
33	CCCN(CCC)C(=O)c1cc2c(=O)n3cccc(C)c3nc2s1	16	0.6	-21	3	6	3704	-11
34	NP(=O)(OCCCc1ccccc1)Oc1ccccc1Cl (configuration not stated)	nt	nt	-25	nt	nt	2936	-11
